High-throughput results: PubChem BioAssay, University of Pittsburgh Molecular Library Screening Center
WNV NS2B-NS3 inh = inhibitors of West Nile virus NS2B-NS3 protease. P06935. WNV NS2B-NS3 protease, fluorogenic substrate Ex360/Em465; stronger effect = lower value. z-score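 (tested at a level between 10 and 100 µM)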. 65,000 tested, 0.18% active;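 active = z-score at -3 or under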;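 also: score is relative to mean and spread of the compound wells of a plate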
Target sequence (P06935 1371-1501 limits assumed): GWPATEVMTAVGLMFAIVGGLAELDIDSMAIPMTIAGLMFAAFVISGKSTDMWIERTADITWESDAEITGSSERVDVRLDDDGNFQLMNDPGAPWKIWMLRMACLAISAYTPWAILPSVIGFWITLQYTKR
Target sequence (P06935 1502-1679 limits assumed): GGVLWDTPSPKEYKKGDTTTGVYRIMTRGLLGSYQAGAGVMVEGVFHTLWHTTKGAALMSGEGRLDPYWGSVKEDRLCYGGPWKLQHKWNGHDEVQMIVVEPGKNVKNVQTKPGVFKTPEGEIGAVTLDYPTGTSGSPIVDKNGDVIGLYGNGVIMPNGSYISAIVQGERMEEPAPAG
Active calls of the source: *.

SMILES | WNV NS2B-NS3 inh
CCC(=O)N1CCc2cc(S(=O)(=O)Nc3ccc4c(c3)OCCO4)ccc21 | 0.46
O=S(=O)(c1cccc(-c2nnc(-c3ccc(Br)cc3)o2)c1)N1CCCCCC1 | 2.8
C=CCn1c(SCC(=O)N2CCN(c3ccc(F)cc3)CC2)nnc1-c1ccco1 | 0.66
O=C(NC1CCCCCC1)C1CCN(S(=O)(=O)c2ccccc2)CC1 | -0.66
O=C(Nc1nc(-c2ccccn2)cs1)c1ccc(Cl)s1 | 3.2
C=CCc1c(C)nc(SCC(=C)C)[nH]c1=O | -0.47
Cc1nc(-c2ccccc2)nc2[nH]c(=O)n(-c3ccccc3)c(=O)c12 | -0.72
Cc1cc(NC(=O)c2ccc(S(=O)(=O)N3CCOCC3)cc2)nc2c1c(=O)oc1ccccc12 | -0.8
COc1cccc(CN2CCN(C(=O)c3cccc(F)c3)CC2)c1 | -0.43
CCOC(=O)c1[nH]c(C(=O)O)c(CCC(=O)OC)c1C | -0.82
CCn1cc(S(=O)(=O)CC(=O)N2CCc3ccccc32)c2ccccc21 | -0.04
CCOCCCNC(=O)C1CCN(S(=O)(=O)N2CC(C)CC(C)C2)CC1 (configuration not stated) | 1.9
CCOc1ccc(/C(O)=C2/C(=O)C(=O)N(CCCn3ccnc3)C2c2cccs2)cc1Cl (configuration not stated) | 0.95
O=S(=O)(NCCc1cn2ccccc2n1)c1cccs1 | 0.55
CC1=C(/C=C/C(C)=C/C=C/C(C)=C/C(=O)O)C(C)(C)CCC1 | 1.1
CC1=CS/C(=C(/C#N)C(=O)NCc2ccco2)N1c1ccccc1 | -0.44
COc1ccc(C(C(=O)NC2CCCCC2)N2CCC3(CC2)OCCO3)cc1 (configuration not stated) | -0.5
Cc1ccc(S(=O)(=O)NCC(=O)OCN2C(=O)c3ccccc3C2=O)cc1 | -0.25
Cc1nc2ccccc2n1CC(=O)NCCN1CCCC1 | 0.37
COc1ccc(-c2csc(=Nc3ccccc3)n2CCO)cc1 | -0.52
Cc1cccc(N2CCN(C(=O)COc3cc(=O)n(C)c4ccccc34)CC2)c1C | -1.7
CCCC(=O)Nc1cc(OC)c(OC)cc1C(=O)O | 0.0028
O=C(NCCCN1CCN(c2cccc(Cl)c2)CC1)c1nc(-c2ccncc2)no1 | -1.1
COc1cccc(C(=O)Cn2c(=O)n(CC3CCCO3)c(=O)c3ccccc32)c1 (configuration not stated) | 0.4
Cc1nn(-c2ccccc2)c(N2CCCCC2)c1/C=N/O | 0.18
CCn1c(SCC(=O)Nc2ccc(N3CCOCC3)c(Cl)c2)nnc1-c1ccc(N)cc1 | -0.13
CCc1ccc(C(=O)CSC2=C(C#N)C(c3ccco3)C(C(C)=O)=C(C)N2)cc1 (configuration not stated) | -0.23
O=C(NCc1n[nH]c(=S)n1-c1cccc(Cl)c1)c1ccc(S(=O)(=O)N2CCCC2)cc1 | -0.56
Cn1c(=O)c(C(=O)NCCO)c(O)c2ccccc21 | -0.37
COc1ccc(C(=O)NCCc2nnc(SCc3nc4ccccc4c(=O)[nH]3)n2C)cc1 | -0.74
N#CCSC1=Nc2ccccc2C2=NC(CCC(=O)N3CCN(c4ccccc4)CC3)C(=O)N12 (configuration not stated) | 0.64
CC(C)(C)c1csc(N(CCC#N)CCC#N)n1 | -0.72
N#Cc1nc(COc2cccc(Cl)c2)oc1NCc1ccco1 | 0.61
Cc1oc2c(O)c(O)ccc2c(=O)c1-c1ccccc1 | 1.2
CCOc1ccc(OCC)c(NC(=O)CN2CCN(c3cccc(C)c3)C(C)C2)c1 (configuration not stated) | -0.99
COc1cccc(NC(=O)CCSc2nnc3scc(-c4ccccc4)n23)c1 | -0.21
Cc1cc(N2CCN(S(=O)(=O)c3ccc(Cl)cc3)CC2)c2ccccc2n1 | -0.65
O=C(Nc1ccccn1)c1cccc(S(=O)(=O)N2CCCCC2)c1 | 1.3
CCCc1nc(C)c(-c2ccc(OC)c(OC)c2)c(=O)[nH]1 | -0.52
Fc1ccc2[nH]c3c(N4CCN(Cc5ccc6c(c5)OCO6)CC4)ncnc3c2c1 | 0.63
COc1cccc2c(C)c(C(=O)O)[nH]c12 | -1.4
CCc1ccc(C2CC(c3ccccc3)n3ncnc3N2)cc1 (configuration not stated) | 0.3
C=CCn1c(CC(=O)Nc2cccc(OC)c2)nnc1SCC(=O)NC1CCCCC1 | 1.2
O=c1oc(-c2ccco2)nc2ccccc12 | -1.3
O=C(Nc1ccccc1Oc1ccccc1)c1ccc(Br)o1 | 0.0099
O=C(c1ccccc1F)N1CCN(c2ccccc2)CC1 | 2.2
CCCc1nc(NC(C)=O)c(C#N)c(-c2ccco2)c1CC | 0.04
O=C(c1cccs1)n1cc(C(=S)N2CCOCC2)c2ccccc21 | 0.35
Cc1c(NC(=O)C2CCCCN2S(=O)(=O)c2ccc(Cl)cc2)c(=O)n(-c2ccccc2)n1C (configuration not stated) | 0.05
O=C(c1cnccn1)N(c1ccccc1)C1(C(=O)NC2CCCC2)CCCCC1 | -0.91
Remaining list, next part:
SMILES | WNV NS2B-NS3 inh
CC(C)NC(=O)C1CCCN(S(C)(=O)=O)C1 (configuration not stated) | -0.99
CCCc1cc(=O)[nH]c(SCC(=O)NC2CCCCC2)n1 | 1.7
COc1cccc(-c2nnc3sc(C4CCCCC4)nn23)c1 | 1
CN1CCN(CCC(=O)Nc2ccc(F)c(F)c2)CC1 | -0.64
O=C(c1cc2ncc(Br)cn2n1)N1CCOCC1 | 3
CC(=O)OC(C#CCN1CCOCC1)c1ccccc1 (configuration not stated) | 1.1
O=C(Nc1ccc2c(c1)OCCO2)C1CCN(S(=O)(=O)c2cccs2)CC1 | -0.88
O=C(NCCc1ccccc1)C1CCCN(S(=O)(=O)c2cccc3nonc23)C1 (configuration not stated) | -0.0014
O=C(CSc1nccn1-c1ccccc1)N1CCc2ccccc21 | -0.24
COC(=O)c1ccccc1N1C(=O)C2C(C1=O)C1C=CC2C12CC2 (configuration not stated) | -0.84

Part of the list above in order of length of the SMILES, smallest number first:
SMILES | WNV NS2B-NS3 inh
O=C(c1cc2ncc(Br)cn2n1)N1CCOCC1 | 3
COc1cccc(-c2nnc3sc(C4CCCCC4)nn23)c1 | 1
COC(=O)c1ccccc1N1C(=O)C2C(C1=O)C1C=CC2C12CC2 (configuration not stated) | -0.84

Other records.
SMILES | WNV NS2B-NS3 inh
CCCCN(C)CCCNC(=O)C1CC(=O)N(Cc2ccc(OC)cc2)C1 (configuration not stated) | 0.64
CCCCC(CC)Cn1c(N)c(C#N)c2nc3ccccc3nc21 (configuration not stated) | -0.58
O=c1cc(-c2ccccc2)nc(N2CCN(Cc3ccc4c(c3)OCO4)CC2)[nH]1 | 0.41
O=C(NCCCN1CCCC1=O)c1cccc(N2CCCC2=O)c1 | 0.29
COc1ccc(-c2cc(C(=O)Nc3c(C)nn(Cc4ccccc4Cl)c3C)no2)cc1 | -1.6
COc1cc(C(=O)NCc2nnc(SCC(=O)N3CCC(C)CC3)o2)cc(OC)c1OC | 0.35
O=C(NCC(=O)N(CCN1CCOCC1)C(C(=O)NC1CCCC1)c1cccnc1)c1cccs1 (configuration not stated) | 0.68
COCCSc1ccccc1C(=O)Nc1ccncc1 | -0.92
O=C(CSc1nnc(CNC(=O)c2cccs2)o1)NC1CCCCC1 | 1.4
CCn1c(C(C)NC(C)=O)nc2ccccc21 (configuration not stated) | 0.47
C=CCNC(=O)C1CC=CCC1C(=O)O (configuration not stated) | -0.17
O=C(O)c1cc(=O)c2c(OCC(O)COc3cccc4oc(C(=O)O)cc(=O)c34)cccc2o1 | -0.19
COc1ccccc1CNC(=O)C1CCN(S(=O)(=O)N2CC(C)CC(C)C2)CC1 (configuration not stated) | 1
O=C(O)c1cc(-c2ccccc2)nc2ccccc12 | 0.33
COc1cc(-c2ccc(NC(=O)CN3CCCCC3)c(OC)c2)ccc1NC(=O)CN1CCCCC1 | -0.27
CCN(CCCNC(=O)Cn1cc2c(n1)CCCC2)c1cccc(C)c1 | 0.71
CCN(CC)c1ccc(C2CC(=O)Nc3cc(OC)c(OC)cc32)cc1 (configuration not stated) | 0.05
CC(C)COC(=O)n1ccc(C(=O)N2CCCCC2)n1 | -0.94
CSc1nc2ccc(S(=O)(=O)NC3CCCCC3)cc2s1 | 0.5
COc1ccc(Cl)c(Cn2c(NCc3ccco3)nc3c2c(=O)n(C)c(=O)n3C)c1 | -0.58

Molecules shown so far that contain a Cl atom (ten):
SMILES | WNV NS2B-NS3 inh
O=C(Nc1nc(-c2ccccn2)cs1)c1ccc(Cl)s1 | 3.2
CCOc1ccc(/C(O)=C2/C(=O)C(=O)N(CCCn3ccnc3)C2c2cccs2)cc1Cl (configuration not stated) | 0.95
O=C(NCCCN1CCN(c2cccc(Cl)c2)CC1)c1nc(-c2ccncc2)no1 | -1.1
CCn1c(SCC(=O)Nc2ccc(N3CCOCC3)c(Cl)c2)nnc1-c1ccc(N)cc1 | -0.13
O=C(NCc1n[nH]c(=S)n1-c1cccc(Cl)c1)c1ccc(S(=O)(=O)N2CCCC2)cc1 | -0.56
N#Cc1nc(COc2cccc(Cl)c2)oc1NCc1ccco1 | 0.61
Cc1cc(N2CCN(S(=O)(=O)c3ccc(Cl)cc3)CC2)c2ccccc2n1 | -0.65
Cc1c(NC(=O)C2CCCCN2S(=O)(=O)c2ccc(Cl)cc2)c(=O)n(-c2ccccc2)n1C (configuration not stated) | 0.05
COc1ccc(-c2cc(C(=O)Nc3c(C)nn(Cc4ccccc4Cl)c3C)no2)cc1 | -1.6
COc1ccc(Cl)c(Cn2c(NCc3ccco3)nc3c2c(=O)n(C)c(=O)n3C)c1 | -0.58

Further structures follow:
SMILES | WNV NS2B-NS3 inh
CCOc1ccc(Br)cc1/C=N/O | -0.52
CC(=O)N1CCc2cc(S(=O)(=O)NC3CCCc4ccccc43)ccc21 (configuration not stated) | 2.3
CCOc1ccc(NC(=O)CN(c2cc(C)cc(C)c2)S(=O)(=O)c2c(C)noc2C)cc1 | 0.16
Cc1ccc(Cl)cc1N1CCN(C(=O)C2CCN(S(=O)(=O)c3cccnc3)CC2)CC1 | -0.85
COc1cccc(-c2cc(C(=O)NC3CCCC3)no2)c1 | -0.55
CCOC(=O)N1CCN(C(=O)N2CCOCC2)CC1 | 0.06
CC(C)NC(=O)C1CCN(Cc2cnn(-c3ccccc3)c2-n2cccc2)CC1 | 0.65
O=C(CSc1nnc(CNC(=O)c2c(F)cccc2Cl)o1)Nc1ccccc1 | 1.8
c1csc(CNc2nc3ccccc3n2CCN2CCOCC2)c1 | 1.9
CC1SC(=NC(=O)c2ccco2)NC1=O (configuration not stated) | -0.59
COc1cc(C(=O)NCc2nnc(SCC(=O)NCc3ccccc3)o2)cc(OC)c1OC | -0.05
O=C(NCc1ccccn1)c1ccc2ccccc2n1 | -0.29
CC(C)C1Cc2c(C#N)c(N)sc(=S)c2CO1 (configuration not stated) | 0.16
CCC(C)(C(=O)NC1CCCCC1)N(C)C(=O)c1ccccn1 (configuration not stated) | -0.35
CC1Cc2nc(SCC(N)=O)n(Cc3ccccc3)c(=O)c2S1 (configuration not stated) | -0.45
COc1ccc(N2C(=O)C3CC(C)=C(C)CC3C2=O)c(OC)c1 (configuration not stated) | -0.65
CC(C)n1nnnc1SCC(=O)Nc1ccccc1N1CCOCC1 | -0.39
Cc1ccsc1C(=O)Nc1ccc(C(=O)O)cc1 | 0.82
Cn1c(=O)oc2cc(S(=O)(=O)N3CCC(C(=O)Nc4ccc(OC(F)(F)F)cc4)CC3)ccc21 | 1.1
Cc1oc(-c2ccccc2F)nc1CS(=O)(=O)CC(=O)NCc1ccco1 | 0.39
CCCS(=O)(=O)N1CCN(C(=O)c2ccco2)CC1 | -1.2
Cc1cccc(CN2CCN(c3ccccn3)CC2)c1 | -0.59
O=C(NCCCc1ccccc1)c1ccccc1O | 0.08
Cc1cc(C)n(-c2nc3c(c(=O)[nH]c(=O)n3C)n2CC(O)COc2ccccc2)n1 (configuration not stated) | -0.61
O=C(NCCN1CCCC1)C1CCN(S(=O)(=O)N2CCC3(CC2)OCCO3)CC1 | 0.49
O=C(NCCN1C(=O)C2C3C=CC(C3)C2C1=O)Nc1ccc(Br)cc1 (configuration not stated) | -0.11
CCOC(=O)N1CCN(S(=O)(=O)c2ccc(OC)c(Cl)c2Cl)CC1 | -0.65
Cc1cc(NC(=O)C2CCCCC2)nc2c1c(=O)oc1ccccc12 | 0.0052
CCCCN(C)CCCNC(=O)c1cccc(N2CCCC2=O)c1 | 1.4
COC(=O)Cn1c(=NC(=O)CSCC(=O)Nc2cc(C)on2)sc2ccccc21 | -0.66
COc1ccc(OC)c(NS(=O)(=O)c2ccc(NC(=O)C3COc4ccccc4O3)cc2)c1 (configuration not stated) | 0.2
CC(C)(C)c1cc(C(c2cccnc2)N2CCN(CCO)CC2)cc(C(C)(C)C)c1O (configuration not stated) | -0.88
Cc1nc2nc(SCC(=O)NCc3ccco3)nn2c(C)c1Cc1ccccc1 | 2.2
c1cncc(CNc2nc(N3CCOCC3)nc(N3CCOCC3)n2)c1 | 0.37
O=C(CSc1nnc(-c2cnccn2)n1Cc1ccco1)c1ccc2ccccc2c1 | 2.4
COc1ccc(-c2noc(CCC(=O)NCC3CCN(Cc4cccc(C)c4)CC3)n2)cc1 | 0.24
CCCCCCOC(=O)C1=C(C)NC(=O)NC1c1ccc(O)cc1 (configuration not stated) | 0.69
Cc1ccc(Cn2c(SCC(C)C)nc3c2c(=O)[nH]c(=O)n3C)cc1 | -0.36
c1ccc(CN2CCN(CCCNc3ccc4nnc(-c5ccccc5)n4n3)CC2)cc1 | -0.66
O=C1c2ccccc2-c2c1cccc2C(=O)N1CCN(C(=O)c2ccco2)CC1 | 1.6
CCSc1nnc(NC(=O)c2ccccc2)s1 | -0.44
CCO/C=N/c1c(C#N)c(CC#N)nn1-c1ccccc1 | -1
Cc1cccc2sc(NC(=O)CN(C)S(=O)(=O)c3ccc(Br)s3)nc12 | 1.1
Cc1nc(CSc2nnc(C)s2)cs1 | -0.46
CCN(CCCNC(=O)CCc1nc(-c2ccc(OC)cc2)no1)c1cccc(C)c1 | -0.76
O=C(CCNS(=O)(=O)c1cccc2nsnc12)Nc1ccc2c(c1)OCCO2 | -0.82
CCN(c1cccc(C)c1)S(=O)(=O)c1ccc2c(c1)CCN2C(C)=O | 0.46
CCNc1nc(N)nc(Oc2ccc(C(=O)OC)cc2)n1 | -0.43
C=CC(=C)CC(NC)c1ccccc1 (configuration not stated) | -2.8
COc1ccccc1N1CCN(Cc2ccc(OC)c3ccccc23)CC1 | 0.17
Cc1nnc2n(-c3ccc(Cl)cc3)c(=O)c3c4c(sc3n12)CN(C)CC4 | 0.42

The list is partial; the hit share may differ from the screen's.
